# Screens deposited in PubChem by Center for Chemical Genomics, University of Michigan.
# TAR Tat displ = HIV-1 TAR-Tat binding disruption; HIV-1 TAR RNA, Tat peptide displacement FRET; stronger effect = higher value; z-score (concentration not given with the values); hit rate 0.6% among 100,000; AID 1259389;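 note: score is relative to mean and SD of negative controls; some compounds called inactive have numbers as strong as hits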
# CDC25B CDK2 inh = human CDC25B-CDK2/CyclinA binding inhibition. HTRF CDC25B-CDK2/CyclinA binding, anti-His/anti-Flag; stronger effect = higher value. z-score (concentration not given with the values). hit rate 0.72% among 94,000. AID 1259370. P30305+P24941;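 note: score is relative to mean and SD of negative controls; strong numbers were not always called active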
# An asterisk follows results filed as active; . = no result given.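 Rule for the calls: active = z-score from 3 up in half or more of its runs; inactive = the rest.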
# Each structure is followed by: TAR Tat displ	CDC25B CDK2 inh
- CCOC(=O)c1sc2ccccc2c1S(=O)(=O)N1CCC(C)CC1
  -0.61	.
- O=C1CCn2nc(-c3cccc(Cl)c3)cc2N1
  0.95	-1.3
- COC(=O)c1cc2c(cc1NC(=O)c1noc3c1CCc1sccc1-3)OCO2
  0.42	.
- Cn1c(=O)c(C=Nc2ccccc2)c(O)c2ccccc21
  .	-1.6
- O=C(Cn1c(=O)oc2ccccc21)Nc1nnc(SCC(=O)N2CCCCC2)s1
  -0.79	-1.6
- Cc1ccc(C)c(Nc2cc(C)ncn2)c1
  -1.1	-2.2
- CC(=O)N1CCC2(CC1)CC(=O)c1cc(OCC(=O)N3CCOCC3)ccc1O2
  .	0.34
- CCc1ccccc1-n1nnc(-c2nc(-c3ccc(C)cc3)no2)c1C
  0.31	.
- O=C(Nc1ccc(-n2cnnn2)cc1)c1sc2ccccc2c1Cl
  2.5	1.8
- CC(C)C(=O)Oc1ccc(-n2cnnn2)cc1
  -1.7	-1
- CCC(C)NC(=O)c1cnc2sc3c(n2c1=O)CCCC3 (stereo not drawn)
  1.2	.
- COc1ccccc1-c1noc(=O)[nH]1
  0.66	0.6
- CN1CCN(C(c2cccnc2)c2oc3ccccc3c2NC(=O)c2ccccc2)CC1 (stereo not drawn)
  0.41	0.12
- CCOc1ccc(-c2noc(-c3ccncc3)n2)cc1OCC
  -0.08	-1.6
- Cc1cccc(-n2ncc3c(N4CCCC4)ncnc32)c1
  -0.38	0.64

# Arranged by number of heavy atoms (low to high): some entries from above
# Each structure is followed by: TAR Tat displ	CDC25B CDK2 inh
- CCOc1ccc(-c2noc(-c3ccncc3)n2)cc1OCC
  -0.08	-1.6
- O=C(Nc1ccc(-n2cnnn2)cc1)c1sc2ccccc2c1Cl
  2.5	1.8
- CC(=O)N1CCC2(CC1)CC(=O)c1cc(OCC(=O)N3CCOCC3)ccc1O2
  .	0.34

# (continued)
# Each structure is followed by: TAR Tat displ	CDC25B CDK2 inh
- CCCN(CCC)S(=O)(=O)c1ccc(C(=O)Nc2cccnc2)cc1
  .	-1.1
- CCc1nn2cc(-c3ccc(C)c(C)c3)nc2s1
  0.06	-1.4
- Cc1sc2nc(SCC(=O)N3CCCCC3)[nH]c(=O)c2c1C
  -0.63	-1.6
- Cc1noc2ncnc(N3CCCC3CO)c12 (stereo not drawn)
  0.11	.
- COC(=O)c1sccc1NS(=O)(=O)c1ccc(Cl)cc1
  .	-0.4
- Cc1cc(NS(=O)(=O)c2ccc(NC(=O)Nc3ccccc3)cc2)no1
  .	-2.9
- CCN(CC)CCn1c(C)nn2c3ccccc3nc12
  .	-0.2
- O=C(Nc1ccc2nc3n(c(=O)c2c1)CCCCC3)C(=O)N1CCc2ccccc2C1
  1.6	-1.2
- CCc1nnc(NC(=O)CSc2nnc(Cc3cccn3C)n2-c2ccccc2)s1
  0.62	0.41
- COc1ccccc1/C=C/c1nc(C#N)c(NC2CCCCC2)o1
  -0.04	-1.9
- COc1ccc(-c2cc(C(F)(F)F)n3nc(C(=O)N4CCCC4)cc3n2)cc1
  -0.53	0.01
- Cc1csc(NC(=O)C2CCN(S(=O)(=O)c3ccc4c(c3)oc(=O)n4C)CC2)n1
  .	-1.9
- NS(=O)(=O)c1ccc(NC(=O)C2CC=CCC2C(=O)N2CCOCC2)cc1 (stereo not drawn)
  -0.67	-0.78
- Cc1c(C(=O)O)sc2ncnc(Nc3cccc(Cl)c3)c12
  21*	.
- Cc1cc(Nc2ccc(N3CCN(S(C)(=O)=O)CC3)cc2)n2ncnc2n1
  -0.8	-2.2

# Continued; the last three above are carried over.
# Each structure is followed by: TAR Tat displ	CDC25B CDK2 inh
- NS(=O)(=O)c1ccc(NC(=O)C2CC=CCC2C(=O)N2CCOCC2)cc1 (stereo not drawn)
  -0.67	-0.78
- Cc1c(C(=O)O)sc2ncnc(Nc3cccc(Cl)c3)c12
  21*	.
- Cc1cc(Nc2ccc(N3CCN(S(C)(=O)=O)CC3)cc2)n2ncnc2n1
  -0.8	-2.2
- Cc1ccc(-c2onc(C)c2C)cc1S(=O)(=O)Nc1ccc(Br)cc1F
  0.55	.
- O=C(c1cc(-c2ccc3c(c2)OCO3)on1)N1CCN(c2ccccc2)CC1
  .	1.2
- O=S(=O)(c1cc(OCC(F)(F)F)ccc1OCC(F)(F)F)n1cccc1
  .	-1.4
- Cc1cc(=O)[nH]c2c1c(C)nn2C1CCOC(C)(C)C1 (stereo not drawn)
  -0.32	0.03
- CCOC(=O)c1sc(-c2ccccc2)nc1C
  .	5.7
- FC(F)(F)c1cccc(-c2nc3c(Cl)cc(C(F)(F)F)cn3n2)c1
  .	-1.9
- Cc1sc2ncnc(N3CCN(c4ccccc4)CC3)c2c1C
  1.7	.
- CCOC(=O)C1=C(Nc2ccc(F)cc2)C(=O)N(C2CCCCC2)C1
  .	-1.6
- O=C(Nc1nc2cc(NS(=O)(=O)c3cc(F)ccc3F)ccc2s1)C1CCCCC1
  1.5	.
- COCc1cc(C)nc2sc3c(=O)n(-c4ccc(C(=O)OC)cc4)nnc3c12
  1.8	-0.21
- C=C(C)Cn1c(SCC(=O)O)nnc1-c1ccccc1
  1.4	-1.9
- CCN(CC)Cc1ccc(Nc2ccnc3cc(Cl)ccc23)cc1O
  -0.46	.
- CC(=O)N(CCN(C)C)c1nc2cc(C)cc(C)c2s1
  -0.59	.
- Clc1ccc(-c2cn3c(n2)COc2ccccc2-3)cc1
  -1.1	-2.5
- O=C(CCCN1C(=O)c2cccnc2Sc2ccccc21)N1CCN(c2ccccn2)CC1
  -1.2	.

# Next part.
# Each structure is followed by: TAR Tat displ	CDC25B CDK2 inh
- CCOC(=O)c1sc2ccccc2c1S(=O)(=O)Nc1cc(F)ccc1F
  -0.66	.
- COC(=O)c1cc(NS(=O)(=O)c2ccc(F)cc2)cc(C(=O)OC)c1
  0.72	-2
- COc1cc2ncnc(NCc3cccc4c3OCO4)c2cc1OC
  .	-1.4
- CCOC(=O)N1CCC(NC(=O)c2cc3c(s2)-c2ccc(Cl)cc2S(=O)(=O)C3)CC1
  1.1	-1.5
- Cc1nc(SCC(=O)Nc2cccc(Cl)c2)c2sc3nc4c(cc3c2n1)COC(C)(C)C4
  0.15	.
- Cc1cccc(NS(=O)(=O)c2ccc3c(c2)S(=O)(=O)N=CN3)c1C
  0.46	.
- O=C1c2cccc3c(SCCO)ccc(c23)C(=O)N1CCc1ccccn1
  .	7.8*
- Cc1ccc2[nH]c(CSc3n[nH]c(C)n3)cc(=O)c2c1
  0.69	.
- CSc1cccc(NC(=O)N2CCC(CN3CC(C)CC(C)C3)CC2)c1 (stereo not drawn)
  0.44	.
- COc1ccc2cc1Oc1ccc(cc1)C[C@H]1c3cc(c(OC)cc3CCN1C)Oc1c(OC)c(OC)c(OC)c3c1[C@H](C2)N(C)CC3
  1.6	.
- COc1ccc(-c2nc(-c3cc4ccccc4[nH]c3=O)no2)cc1OC
  -1.3	-1.3
- CCn1c2c(c(=O)[nH]c1=O)C(c1cccc(Cl)c1)C1=C(N2)c2ccccc2C1=O (stereo not drawn)
  2.4	-1.1
- O=S(=O)(c1ccccc1)c1nnn2c1nc(N1CCc3ccccc31)c1sccc12
  0.35	.
- O=c1[nH]cnc2onc(-c3cc(F)cc(F)c3)c12
  1.7	-2
- Cc1nn(CCCC(=O)NC2CCCC(C)C2C)c(=O)c2nccn12 (stereo not drawn)
  2.4	-1.7

# More structures follow:
# Each structure is followed by: TAR Tat displ	CDC25B CDK2 inh
- Cc1ccc2oc3c(c(=O)c2c1)C(c1ccc(Cl)cc1)N(CCCN1CCOCC1)C3=O (stereo not drawn)
  1.7	-0.4
- O=C(CCCn1c2ccccc2c2cn[nH]c(=O)c21)NCCCN1CCc2ccccc2C1
  2.1	1.4
- O=c1[nH]c2c(s1)C(c1ccccc1Cl)C1C3CCC(C3)C1S2 (stereo not drawn)
  .	-0.17
- CCN1CCC2(CC1)OC(=O)C(C)=C2C(=O)NCc1cccs1
  1.5	.
- O=C(Nc1nc2n(n1)C(c1ccc(F)cc1)C=C(c1ccccc1)N2)c1cccs1 (stereo not drawn)
  0.64	-1.1
- O=C(NCc1ccc(F)cc1)C1CCC(CNc2c(N3CCCC3)c(=O)c2=O)CC1 (stereo not drawn)
  0.75	-0.95
- Cc1cc(C)cc(NC(=O)CSCc2cc(=O)n3c4c(sc3n2)CCCC4)c1
  0.42	.
- O=c1[nH]nc(-c2ccc(Br)cc2)nc1Cc1ccccc1
  1.2	.
- CCn1c(=O)c(=O)n(CC)c2cc(S(=O)(=O)NC3CCCCC3)ccc21
  .	-0.83
- CC(C)(C)C(=O)NCCC1CC1(Cl)Cl (stereo not drawn)
  .	-1.3
- C=CCOC(=O)C1=C(C)Nc2nc(SCCCC)[nH]c(=O)c2C1c1ccc(F)cc1 (stereo not drawn)
  1	-1.3
- CSc1cccc(N2C(=O)N(Cc3cccc(C)c3)C3CS(=O)(=O)CC32)c1 (stereo not drawn)
  0.17	.
- c1n[nH]c(SCCSc2ncn[nH]2)n1
  .	0.79
- CCOc1cc(C2C(C(=O)OC(C)C)=C(C)Nc3nc4ccccc4n32)ccc1O (stereo not drawn)
  -2	-2.1
- Cc1ccc(Cl)c(NC2=CC(=O)CC(C)(C)C2)c1
  0.21	1.2

# Going on with the list:
# Each structure is followed by: TAR Tat displ	CDC25B CDK2 inh
- CC(N)(Cc1ccc(O)cc1)C(=O)O (stereo not drawn)
  .	0.06
- Cc1cc(NC(=O)CSc2nccn2C)no1
  0.27	-1.6
- Cc1cc(N2CCN(C(=O)c3ccco3)CC2)n2nc(C)nc2n1
  .	1.4
- O=C(O)c1cnc(-c2ccccc2)nc1N1CCc2[nH]ncc2C1
  2.6	-0.53
- CC(NC(=O)c1c2c(nc3ccccc13)C(=O)N(C1CCCCC1)C2)c1ccccc1 (stereo not drawn)
  0.61	.
- COc1ccc(OC)c(/C=C2\CCCC3=C2Nc2ncnn2C3c2cc(OC)ccc2OC)c1 (stereo not drawn)
  .	-1.6
- Clc1ccccc1CNc1nc2ccccc2n1CCN1CCOCC1
  -0.96	-0.46
- O=C1CC(Cc2ccccc2)C(=O)N1CCc1ccc2c(c1)OCO2 (stereo not drawn)
  -0.6	.
- Cn1c(=O)c2c(SCC(=O)NCc3ccc(F)cc3)nc(C3CCCC3)nc2n(C)c1=O
  0.99	.
- CCN(CC)C(=O)Cn1cnc2sc(C(=O)O)c(C)c2c1=O
  0.42	-1.1
- O=C(/C=C/c1ccc(-c2cccs2)s1)Nc1cccc(C(F)(F)F)c1
  .	-0.94
- CCOC(=O)c1oc2ccc(Br)cc2c1NC(=O)CN1CCOCC1
  -3.9	-2.9
- Cc1ccc(-c2csc(=N)n2-c2ccccc2)cc1
  .	-1.7
- Cc1[nH]nc2c1C(c1ccc3ccccc3c1)C(C#N)=C(N)O2 (stereo not drawn)
  .	-1.6
- O=C(NCCCN1CCC(N2CCCCC2)CC1)c1ccc(-n2ccc3ccccc32)s1
  0.75	.

# (continued)
# Each structure is followed by: TAR Tat displ	CDC25B CDK2 inh
- O=c1[nH]c(=O)n(CCc2ccccc2)c2nc[nH]c12
  0.69	0.66
- O=S(=O)(c1ccc2[nH]c3c(c2c1)CCCC3)N1CCN(Cc2ccccc2)CC1
  -0.97	.
- CC(C)Cc1nnc(SCc2cc(=O)n3[nH]c(-c4ccccc4)nc3n2)n1C
  0.51	.
- CN(C)c1ccc(/C=C/c2ccc3ccccc3[n+]2C)cc1
  .	0.79
- COc1ccc(-c2nc(N3CCOCC3)c3ccccc3n2)cc1
  1.5	.
- C[N+](C)(C)CCOP(=O)([O-])OP(=O)(O)OC[C@H]1OC(n2ccc(N)nc2=O)[C@H](O)[C@@H]1O (stereo partly drawn)
  -0.95	.
- O=c1c(Nc2ccc(F)c(Cl)c2)c(-c2ccc3c(c2)CCCC3)c1=O
  -1.3	.
- COc1ccc(OC)c(C2c3c(oc4ccc(C)cc4c3=O)C(=O)N2CCCN(C)C)c1 (stereo not drawn)
  0	.
- Cc1ccccc1-c1noc(-c2nnn(-c3cccc(Cl)c3C)c2N)n1
  -0.3	.
- Cc1cc(=O)n2nc(N3CCCC3C(=O)Nc3ccc(C(C)C)cc3)sc2n1 (stereo not drawn)
  1.7	-0.86
- O=C(Nc1cccc(Cl)c1)c1csnn1
  -1.5	0.65
- CCCCc1nc(NCC2CCCO2)c(C#N)c2c1COC(C)(C)C2 (stereo not drawn)
  .	-0.46
- Cc1ccc(OCCSc2n[nH]c3nc4ccccc4n23)cc1
  -4.8	-0.93
- CN1CCN(c2nc(N)c([N+](=O)[O-])c(Nc3ccc(Cl)cc3)n2)CC1
  0.92	.
- Cc1ccc(CNc2ncnc3onc(-c4ccc(F)cc4)c23)cc1
  -0.02	.

# (continued)
# Each structure is followed by: TAR Tat displ	CDC25B CDK2 inh
- COc1ccc(N2C(=O)c3cccnc3C2Nc2ccc3c(c2)OCCO3)cc1 (stereo not drawn)
  1.7	.
- Cc1cc(Cl)ccc1NC(=O)CCS(=O)(=O)c1ccc2c(c1)CC(C)N2C(=O)C1CC1 (stereo not drawn)
  -1.2	.
- Cc1ccc(-n2c(C)nnc2SCc2nc(-c3ccccc3C)no2)cc1
  2.9	-1
- Cc1c(C(=O)N2CCC(C)CC2)oc2ccc3c(c12)C(O)CC1(CCCC1)O3 (stereo not drawn)
  0.91	-1.4
- O=C(NCC1CC1)c1cccn2c(-c3ccc(F)cc3)nnc12
  28	.
- CCOC(=O)c1cnc(-c2ccc(C(F)(F)F)cn2)[nH]c1=O
  .	-0.81
- Cc1ccc2c(CC(=O)Nc3sc4c(c3C(N)=O)CCCC4)coc2c1
  -0.72	-3.7
- COc1ccc(-c2csc3ncnc(NCc4ccccc4)c23)cc1
  0.07	.
- CCOC(=O)c1ccc2c(c1)C1C=CCC1C(c1ccc(Br)cc1)N2 (stereo not drawn)
  -1.8	-2.1
- CCC(=O)Nc1nc(-c2cccs2)ns1
  2.1	-0.68
- Cc1nc2c(ccc3nc(NC(=O)c4ccc(Br)s4)sc32)s1
  .	-0.65
- CCN(CC)CCCNC(=O)C1CCN(c2nnc(N3CCCC3=O)s2)CC1
  -1.4	-0.91

# Hits appear at their usual frequency; about 0.87% have a hit in one of these screens.
